gsp antag: qHTS for Antagonists of gsp, the Etiologic Mutation Responsible for Fibrous Dysplasia/McCune-Albright Syndrome: qHTS; Potency, µM (titrated, usually from 76.9 µM), for inactives: at the top dose activity change, negative = inhibition, most hits filed as inhibitors; gsp-mutant cells, cAMP HTRF, 30 min; control for the full effect not named in the record; 340,000 tested, 0.4% active; active = falling curve of any shape with a large fitted effect; inconclusive = falling curve, mostly with a smaller effect; inactive = flat or rising curve; cell line not stated here;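 also: intracellular cAMP measured with PDE inhibitor Ro 20-1724 present during compound exposure; potency is read from the fitted curve at half-maximal effect; % is scaled to controls: 0 for no effect and ±100 for the full control effect; nearly all actives have a fitted effect of over 65% in size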
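HTRF cAMP read-out (cAMP-d2 plus anti-cAMP antibody-K in lysis buffer, 30 min RT). Before lysis, cells are exposed to compounds with […] for 30 min at 37C in DPBS containing Ca/Mg, BSA and Tween 20.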
ClpP mod: qHTS Assay for Activators of ClpP; Potency, µM (series often up to 57.5 µM), without a hit: at the top dose activity change, negative = active; purified B. subtilis ClpP, FRET peptide cleavage, 20 min; 340,000 tested, 1.9% active; AID 651965, 2013; active = well fitted falling curve with a large enough effect; inconclusive = small, poorly fitted or top-dose-only effect; inactive = no such curve, though single readings can be large or run the other way; also: potency is read from the fitted curve at half-maximal effect; the source files actives as falling curves though it sought activators and does not explain the sign; nearly all actives have a fitted effect of over 65% in size; many hits overshoot -100%
Target sequence (P80244 whole entry, looked up): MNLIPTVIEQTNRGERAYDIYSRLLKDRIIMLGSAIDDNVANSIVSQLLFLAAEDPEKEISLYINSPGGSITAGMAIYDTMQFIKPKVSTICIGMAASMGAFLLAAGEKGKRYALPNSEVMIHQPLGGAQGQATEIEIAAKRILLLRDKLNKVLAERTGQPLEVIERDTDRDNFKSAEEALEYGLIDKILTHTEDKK
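Purified B. subtilis ClpP, 10 microg/mL final in Tris/HCl pH8 with KCl, BSA, glycerol and Tween-20, cleaved an Abz/nitrotyrosine-quenched decapeptide. Fluorescence (ex 320, em 430) was read at 0 and 20 min at room temperature. Delta was normalized to 5.8 microM ADEP and DMSO/no-enzyme controls.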
Sfp inh: qHTS Assay for Inhibitors of Bacillus subtilis Sfp phosphopantetheinyl transferase (PPTase) | 4'-phosphopantetheinyl transferase ffp (Bacillus subtilis), Q9F4F7 | Biochemical Sfp PPTase activity, qHTS | Potency, µM, inactives show max response, negative = inhibition, usual class: inhibitors | 310,000 tested, 3.5% active; active = well fitted inhibition curve with a large enough effect; inconclusive = small, poorly fitted or top-dose-only effect, or another doubt; inactive = no such curve, though single readings can be large or run the other way;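 also: the enzyme is Sfp with the accession as filed and its product quenches rhodamine fluorescence; potency is read from the fitted curve at half-maximal effect; 0% = enzyme reaction without inhibitor and -100% = no enzyme wells; top concentration of the series not given in the record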
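With Hepes-Na pH 7.6 buffer containing 10 mM MgCl2, Sfp (15 nM) modified BHQ-2-YbbR (12.5 uM) using rhodamine-CoA (5 uM). Two reads 30 minutes apart at 525/598 nm yielded each well's rate.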
D2 agonist: Beta-Arrestin HTS for Positive Allosteric Modulators of the Human D2 Dopamine Receptor: Agonists. D(2) dopamine receptor (Homo sapiens), P14416. DiscoveRx PathHunter D2 beta-arrestin, luminescence, 90 min; 100% = 57 uM dopamine signal. activation, % (concentration not given with the values). 360,000 tested, 0.084% active. AID 624465, 2012; in the data active = activation above about 40%; inconclusive = about 15% to 40%; inactive = below about 15%; also: compound concentration not given in the record; the text of the record calls up to 30% inactive
Target sequence (P14416 whole entry, looked up): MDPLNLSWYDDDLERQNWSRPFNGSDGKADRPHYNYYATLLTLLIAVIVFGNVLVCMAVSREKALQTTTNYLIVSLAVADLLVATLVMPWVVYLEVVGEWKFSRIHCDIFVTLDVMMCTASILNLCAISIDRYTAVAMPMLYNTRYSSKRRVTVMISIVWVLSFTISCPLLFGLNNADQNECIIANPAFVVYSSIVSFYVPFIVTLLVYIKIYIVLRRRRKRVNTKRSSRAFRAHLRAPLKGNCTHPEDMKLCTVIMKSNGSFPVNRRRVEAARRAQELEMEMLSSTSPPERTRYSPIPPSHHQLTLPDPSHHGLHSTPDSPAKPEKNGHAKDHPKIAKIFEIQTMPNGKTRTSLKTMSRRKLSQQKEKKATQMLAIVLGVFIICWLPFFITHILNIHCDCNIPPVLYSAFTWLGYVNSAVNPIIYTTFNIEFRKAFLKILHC
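Agonist mode: compounds alone added to overnight-plated D2 PathHunter cells for 90 min at 37 C, with 57 uM final dopamine (EC100) defining full response. Beta-arrestin recruitment detected by chemiluminescent reagent, read after 1 h at ambient temperature.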
gsp agonist: qHTS for Agonist of gsp, the Etiologic Mutation Responsible for Fibrous Dysplasia/McCune-Albright Syndrome: qHTS. gsp mutant cells, cAMP HTRF, 30 min; control for the full effect not named in the record. Potency, µM (series often up to 76.9 µM), for inactives: at the highest dose activation (cAMP increase), actives largely listed as activators. 340,000 tested, 0.13% active; active = well fitted activation curve with a large enough effect; inconclusive = small, poorly fitted or top-dose-only effect, or another doubt; inactive = no such curve, though single readings can be large or run the other way; cell line not stated here;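 also: phosphodiesterase inhibitor Ro 20-1724 added with compounds to block cAMP breakdown; potency is read from the fitted curve at half-maximal effect; nearly all actives have a fitted effect of over 60% in size; about a fifth of the inactives were tested at one dose only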
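Cells in DMEM/10% FBS with G418 were pretreated with compounds in DMSO plus […] (300 uM stock) for 30 min at 37C. cAMP was measured by HTRF (cAMP-d2 plus anti-cAMP antibody-K) after 30 min at room temperature.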
Menin MLL FP FL: qHTS Assay for Inhibitors Targeting the Menin-MLL Interaction in MLL Related Leukemias: Competition With Fluorescein Labeled MLL-derived Peptide | Fluorescence polarization, fluorescein-MLL peptide displacement from menin | FP activity change, % at 61.4 µM | 290,000 tested, under 10 active; inconclusive = falling polarisation curve, or a change in total fluorescence; inactive = total fluorescence flat and polarisation flat or rising; no compound was filed as active; the % refers to the polarisation; negative = inhibition;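 also: % of control where 0% means no effect; inhibitors lower the polarisation; unlabelled MLL peptide was the positive control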
PINK1 modulator: A Quantitative High throughput Screen to Identify Chemical Modulators of PINK1 Expression; PINK1 immunofluorescence, high-content cytometry, 24 h; Potency, µM (top dose mostly 76.6 µM), inactives show top-dose activation (PINK1 increase), usual class: activators; 410,000 tested, 0.2% active; AID 624263, 2012; active = well fitted activation curve with a large enough effect; inconclusive = small, poorly fitted or top-dose-only effect; inactive = flat fitted curve, though single readings scatter; cell line not stated here;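 also: potency is read from the fitted curve at half-maximal effect; % of control where 0% means no effect; nearly all actives have a fitted effect of over 65% in size; a mitochondrial uncoupler was the plate control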
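Fluorescence from anti-PINK1 antibody, together with nuclear and cell stains, was scanned on a laser-scanning cytometer. Before staining, stable-line cells were incubated 24 hours with compounds at 5 concentrations; primary antibody 12 h at 10 degrees C.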
* = called active by the depositor; u = inconclusive; x = no result given; [ ] = another dose, or the depositor's remark. Compounds were not picked by outcome, and some 5.1% of all compounds hit somewhere here.

SMILES	gsp antag	ClpP mod	Sfp inh	D2 agonist	gsp agonist	Menin MLL FP FL	PINK1 modulator
CCN1C(=O)[C@H]2[C@@H](c3ccc(-c4ccccc4)cc3)N[C@@](Cc3ccccc3)(C(=O)OC)[C@H]2C1=O	-10.9%	-0.4%	x	1.6	-21.6%	x	4.3%
COC(=O)C[C@@H]1C[C@H]2c3cc(NS(=O)(=O)c4ccccc4)ccc3O[C@H]2[C@@H](CO)O1	x	-1.1%	x	-2.7	30.6%	x	0.6%
CC(=O)NC(c1ccc(F)c(F)c1)c1nc(-c2cccs2)cs1 (configuration not stated)	x	1.4%	x	1.2	x	x	1.8%
COc1cc(NC(=S)Nc2ccc(OC(F)F)cc2)cc(OC)c1	-6.0%	-0.8%	9.4%	0.7	u	5.1	3.1%
Cc1ccc(S(=O)(=O)N2CCOCC2)cc1C(=O)NC(=S)N(Cc1ccccc1)C(C)C	-5.9%	2.1%	3.7%	-7.5	-7.7%	2.0	6.3%
Cc1c(Cl)cccc1N1CC(C)(C)C1=O	1.2%	x	15.2%	0.3	1.9%[15.4 µM]	2.0	0.7%
O=C(N/N=C/c1cccc([N+](=O)[O-])c1)c1ccccc1-n1cccc1	-24.2%	x	-4.4%	-4.2	5.0%[15.4 µM]	-0.9	0.7%
Cc1ccc(S(=O)(=O)c2ccc(NC(=O)c3c(F)cccc3F)cc2)cc1	-5.7%	-10.2%	3.5%	-2.2	u	-1.6	0.4%
CC(C(=O)N(C)C)N1c2cccc3cccc(c23)S1(=O)=O (configuration not stated)	4.1%	-18.3%	7.9%	-0.1	-0.4%	0.4	1.5%
CC1=C(C(=O)Nc2cccc(C(=O)N3CCC(C(N)=O)CC3)c2)SCCO1	12.9%	-1.5%	11.0%	-1.1	19.2%	x	1.7%
Nc1nnn(CC(=O)N/N=C/c2cn[nH]c2-c2ccccc2)n1	-3.9%	x	16.7%	2.2	0.0%[15.4 µM]	-1.5	1.2%
Cn1nc(CC(=O)NCCN2C(=O)CSC2=O)c2ccccc2c1=O	12.6%	-0.9%	-0.6%	-5.2	11.6%	0.2	3.8%
COc1ccc(NC(=O)CN(C)C(=O)CNC(=O)c2cccs2)cc1	3.0%	-1.5%	8.5%	-4.5	-15.8%	5.2	-0.2%
COc1ccccc1NC(=S)NC(NC(C)=O)C(Cl)(Cl)Cl (configuration not stated)	6.8%	-0.5%	-23.0%	2.5	5.2%	5.7	-0.1%
COc1ccc(COC(=O)CCc2cc(OC)c(OC)c(OC)c2)cc1F	-8.8%	x	x	-4.2	-0.7%[15.4 µM]	x	2.0%
Cc1ccc(S(=O)(=O)NC(CC(C)C)C(=O)N2CC(C)OC(C)C2)cc1 (configuration not stated)	-6.2%	-3.2%	9.2%	-1.0	2.4%	x	-1.0%
O=C(COc1ccc(F)cc1)Nc1nc(-c2cccnc2)cs1	x	-3.2%	x	-2.0	-5.4%	x	1.2%
Cc1c(CC(=O)N2CCC(O)CC2)c(=O)oc2cc3c(cc12)CCC1(CCCCC1)O3	x	4.0%	x	0.2	-93.1%[inhibitor]	x	2.3%
O=C(OCC(=O)N1CCC(Cc2ccccc2)CC1)c1ccccc1NCCO	-2.0%	x	x	-2.2	-7.2%[15.4 µM]	x	-3.1%
O=C(c1ccco1)N1CCN(S(=O)(=O)c2ccccc2)CC1	11.5%	x	9.1%	-1.0	-15.7%	4.9	-1.3%
CN(C(=O)COC(=O)/C=C/c1ccc(C(F)(F)F)cc1)C1CCS(=O)(=O)C1 (configuration not stated)	-1.4%	1.3%	24.9%	-0.8	5.6%	x	1.0%
CC(=O)N1CCC2(CCN(Cc3ccccc3)CC2)CC1	x	x	12.7%	x	x	0.0	-0.1%
O=C(Nc1ccc(Cl)cc1)NC1CCS(=O)(=O)C1 (configuration not stated)	2.4%	0.4%	7.4%	-0.9	-5.5%	0.0	0.4%[38.3 µM]
COC(=O)c1ccc(OC)c(CSc2nnc(COc3ccc(OC)cc3)o2)c1	-11.5%	-0.7%	-2.4%	2.5	7.4%	3.4	1.8%
COc1ccc(N2CCN(C(=O)c3ccc(Br)cc3)CC2)c([N+](=O)[O-])c1	-13.8%	x	7.2%	-0.6	-11.3%[15.4 µM]	-2.9	0.7%

Later entries.
SMILES	gsp antag	ClpP mod	Sfp inh	D2 agonist	gsp agonist	Menin MLL FP FL	PINK1 modulator
CC(=O)c1cccc(NC(=O)C2CCCN2S(=O)(=O)c2cccc3cccnc23)c1 (configuration not stated)	2.2%	-0.9%	19.4%	-1.3	-12.5%	5.1	-0.9%
Cc1noc(C)c1COc1ccc(C(=O)OCC(=O)OC(C)(C)C)cc1	-11.7%	x	0.6%	-11.4	-1.7%[15.4 µM]	0.3	2.7%
Cc1cc(Br)cc2c(C(=O)NCC3CCCO3)cc(-c3ccccc3)nc12 (configuration not stated)	4.6%	-2.3%	-1.8%	1.5	u	-3.9	16.5%
CCN1CCN(C(c2ccccc2)c2nnnn2CCc2ccc(OC)c(OC)c2)CC1 (configuration not stated)	-1.2%	0.1%	3.5%	-5.0	-19.5%	3.5	-1.3%
NC(=O)c1ccsc1NC(=O)COC(=O)Cc1ccc(F)cc1	x	-6.1%	x	-3.0	u	x	1.5%
CC(C)(C)OC(=O)N1CCCC(C(=O)Nc2ccc(C(=O)N3CCCC3)cc2)C1 (configuration not stated)	0.1%	-1.3%	x	-3.9	26.8%	x	0.0%
CN(Cc1cccc(Cl)c1Cl)CC(O)COc1ccccc1 (configuration not stated)	4.1%	-1.7%	-9.0%	-3.6	0.9%	0.0	6.6%
Cc1cc(C)c(OCCn2ccnc2)c(C)c1	5.0%	2.1%	-6.5%	-2.0	10.0%	0.9	2.9%
Cc1nc2ccccc2c2nc(NC(=O)Cc3ccccc3)nn12	17.6%	4.4%	-11.6%	1.0	13.3%	-1.8	2.7%[38.3 µM]
c1ccc2c(CSCc3nc4ccccc4[nH]3)cccc2c1	u	0.6%	22.8%	-0.7	-19.7%	1.1	2.0%[38.3 µM]
Cc1c(N=Cc2cccs2)c(=O)n(-c2ccccc2)n1C	7.2%	0.0%	7.4%	-0.5	-46.2%[inhibitor]	-0.1	u
COc1cccc(C(=O)Nc2cc(=O)n(C)c(=O)n2C)c1OC	6.8%	1.0%	6.8%	-0.1	-1.8%	-9.6	0.5%
CC(=O)Nc1cccc(NC(=O)CSc2nc(C3CC3)nc3ccccc23)c1	-1.9%	x	-13.3%	0.5	-0.7%[15.4 µM]	-0.8	-0.4%
N=C(N)Cc1ccccc1Sc1ccccc1	-8.2%	-2.6%	-7.7%	-3.0	-56.7%[inhibitor]	x	-0.6%
CCOC(=O)c1ccccc1NC(=O)c1ccc(Cl)c(S(=O)(=O)N2CCOCC2)c1	-6.6%	u	x	-1.2	-32.3%[inhibitor]	x	2.2%[38.3 µM]
O=C(Cc1cccc(C(F)(F)F)c1)Nc1ccccc1	0.8%	x	-0.2%	3.3	11.6%[15.4 µM]	0.3	0.5%
CCC(C)NC(=O)CN1C(=O)NC2NC(=O)NC21 (configuration not stated)	6.6%	0.7%	9.3%	-6.7	36.6%	-1.0	-0.8%
CC1(C)CC(=O)C(C=NCC(O)c2ccccc2)=C(O)C1 (configuration not stated)	-2.0%	1.9%	3.0%	-2.3	-23.1%	2.1	4.6%[38.3 µM]
CC(C)(C)c1ccc(CC(=O)N2CCC2(C)C(=O)Nc2cccc3ccccc23)cc1 (configuration not stated)	x	-3.4%	x	-5.6	x	x	5.6%
CCCC(O)(c1ccccc1)C(CN1CCOCC1)c1ccccc1 (configuration not stated)	4.4%	0.6%	-10.7%	-0.7	u	0.5	3.1%
O=C(CSc1nnnn1-c1cccc2ccccc12)Nc1ccc(C(=O)O)cc1	-0.6%	0.6%	22.1%	0.5	-5.8%	0.6	0.0%
c1ccc(OCCOCCN2CCOCC2)cc1	-1.3%	0.5%	11.2%	-3.0	3.2%	-1.0	1.4%[38.3 µM]
CCOC(=O)C(=O)N1CCN(c2cc3c(cc2[N+](=O)[O-])n(C)c(=O)n3C)CC1	0.8%	0.8%	11.8%	1.0	-0.4%[15.4 µM]	-2.3	0.1%
COc1cc(-c2nnc(CSc3nnc(Nc4ccc(Oc5ccccc5)cc4)s3)o2)cc(OC)c1OC	-13.2%	25.1µM*	13.7%	2.2	-7.4%	-0.4	-0.7%
C=C1C(=O)N(C)CCC1C(CC)C(=O)OC (configuration not stated)	x	-0.8%	x	-3.5	-1.1%	x	-0.6%

Additional records.
SMILES	gsp antag	ClpP mod	Sfp inh	D2 agonist	gsp agonist	Menin MLL FP FL	PINK1 modulator
CCc1ccc(NC(=O)CSc2nnnn2C)cc1	10.5%	2.8%	20.8%	-3.8	-26.3%	-0.4	1.1%
C/C=C/C(=O)OCC(=O)Nc1ccc(OC)c(OC)c1	-14.6%	x	1.0%	-10.2	-3.8%[15.4 µM]	-0.9	0.8%
CN(/N=C/c1cccs1)c1cc(=O)n(C)c(=O)[nH]1	-5.1%	-0.3%	15.7%	-2.0	14.8%	-1.1	0.2%
CS(=O)(=O)c1ccc2nc(NC(=O)c3ccc(Cn4cc(Br)cn4)o3)sc2c1	-23.0%	-21.9%	5.8%	-5.2	20.6%	x	-2.0%
O=[N+]([O-])c1cccnc1Sc1n[nH]c(-c2ccc(Cl)cc2)n1	-2.1%	-2.5%	22.5%	-4.1	-28.7%	0.1	-1.6%
COc1ccc(-n2c(CN3CCN(C)CC3)nc3ccc([N+](=O)[O-])cc3c2=O)c(OC)c1	-3.2%	-1.2%	-3.7%	11.3	u	-5.9	-0.9%

Source: PubChem (National Center for Advancing Translational Sciences (NCATS))
